Source: PubChem
Autofluor counter – counter-screen for toxin protease inhibitors: compound fluorescence | compound autofluorescence counterscreen, microsphere flow cytometry; active compounds read high | fluorescence intensity (concentration not given with the values) | actives 3.1% (n = 360,000) | AID 624483;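 active = at least 3 SD above the mean of all compounds, about 16000 in these data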;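 also: 100 nL of 1 mM stock went into each well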
The depositor's hits bear a star. The list is partial; count on the stated rates, not on these rows.

SMILES	Autofluor counter
CCOC1=C2CN(S(=O)(=O)c3ccc(C)cc3)[C@H](c3ccccc3)C[C@@H]2N(S(=O)(=O)c2ccc(Br)cc2)[C@H](c2ccccc2)C1	4332
CC1(C(=O)Nc2ccc3c(c2)OCO3)Cc2c(-c3cccc(C(F)(F)F)c3)ccnc2O1 (stereo unspecified)	2827
CCCCN(C=O)c1c(CC)nc2ccc(C(=O)NCc3ccc4c(c3)OCO4)cn12	4214
Cc1c(C)c2cc(Cl)c(OCC(=O)NCCCN3CCCC3=O)cc2oc1=O	3675
O=C1NC[C@@H](CCCCN2CCN(CCc3ccccc3)C(=O)C2=O)N(CCc2ccc(O)cc2)C1=O	5301
Cc1ccsc1C(=O)N1CCC1(C)C(=O)NS(=O)(=O)c1ccc(Br)cc1 (stereo unspecified)	4184
N#CC1=C(Nc2ccccc2Cl)SC2(CCCC2)NC1=O	5871
O=C(NCC(c1ccco1)N1CCCC1)c1cccc(S(=O)(=O)N2CCc3ccccc32)c1 (stereo unspecified)	3362
CC(C)C[C@H]1CNC(=O)C(=O)N1C[C@H]1CCCN1C[C@H](CC(C)C)N1C[C@H](CC(C)C)N(CCc2ccccc2)C(=O)C1=O	6170
COc1ccc(Cl)cc1C1=NOC2(CCC2)C(=O)N1Cc1ccc(NC(C)=O)cc1	5413
CNC(=O)c1ccc(NC(=O)c2ccccc2OCc2c(C)noc2C)cc1	3965
CC(=O)Nc1ccc(-c2ccnc3c2CC(C)(C(=O)NC(C)C)O3)cc1 (stereo unspecified)	3902
Cc1cccc(C)c1C(O)c1ncc(-c2ccccc2F)[nH]1 (stereo unspecified)	3877
CC1(C(=O)NCc2ccccc2)Cc2c(-c3cccc(C(F)(F)F)c3)ccnc2O1 (stereo unspecified)	3575
COc1ccc(CN2CCC2(C)C(=O)Nc2cnc3ccccc3c2)c2ccccc12 (stereo unspecified)	3902
OC(c1ccccc1)(c1nc(-c2cc3ccccc3o2)cs1)C(F)(F)F (stereo unspecified)	3995
C[C@H]1CN([C@@H](C)CO)C(=O)CCCn2cc(nn2)CO[C@@H]1CN(C)C(=O)Nc1ccc2c(c1)OCCO2	3757
Nc1[nH]c(C(=O)c2ccccc2)c(-c2ccncc2)c1C(=O)NC1CC1	6103
Cc1ccc(S(=O)(=O)N(C)c2ccc3c(c2)C(=O)c2ccccc2-3)cc1	5828
CCCS(=O)(=O)NC(=O)C1(C)CCN(C(=O)c2ccccc2Br)C1 (stereo unspecified)	2946
O=C(NC(c1ccc2c(c1)OCO2)c1ccccn1)C1CCN(CCOc2ccccc2)CC1 (stereo unspecified)	3900
COc1ccccc1-c1cc2nc(NCCOc3ccccc3)ccn2n1	3961
OC(c1ccccc1)(c1nc(/C=C/c2ccc(C(F)(F)F)cc2)cs1)C(F)(F)F (stereo unspecified)	3783
COc1cc(C)ccc1S(=O)(=O)NC(=O)Cn1nnc(COc2ccc3c(c2)CCCC3)c1C	4056
O=C(NCc1ccncc1)[C@@H]1CCCN1C(=O)[C@@H]1CCCN1	5991

Two entries from above, with each value named.
O=C1NC[C@@H](CCCCN2CCN(CCc3ccccc3)C(=O)C2=O)N(CCc2ccc(O)cc2)C1=O
  Autofluor counter: 5301

Cc1ccsc1C(=O)N1CCC1(C)C(=O)NS(=O)(=O)c1ccc(Br)cc1 (stereo unspecified)
  Autofluor counter: 4184

(more compounds)
SMILES	Autofluor counter
Oc1ccc(C[C@H]2CN([C@@H](Cc3cccc(O)c3)CN3CCC[C@@H]3CN3C(=S)NC[C@@H]3Cc3ccccc3)C(=S)N2CC2CCCCC2)cc1	6793
CCc1nc2c(OCc3ccccc3C(=O)OC)cccn2c1N(C)C(=O)c1ccncc1	3039
COc1ccc(C(C)(O)c2nc(-c3cccc(C#N)c3)cs2)cc1 (stereo unspecified)	3878
O=[N+]([O-])c1cccc(S(=O)(=O)Nc2ccccn2)c1	3750
CSCCC(c1nnnn1C1CCCCC1)N1CCC(n2c(=O)[nH]c3ccccc32)CC1 (stereo unspecified)	5143
Cc1cccc(C)c1-n1nnnc1C(C1CC1)N1CCC(n2c(=O)[nH]c3ccccc32)CC1 (stereo unspecified)	6017
Cc1cn([C@H]2C[C@H](O)[C@@H](CCC(=O)NCc3cccs3)O2)c(=O)[nH]c1=O	5651
CCCCC[C@@H](C)N1C[C@@H](COCc2ccccc2)Oc2cc(N3CCC[C@H]3C(N)=O)ccc2S1(=O)=O	6104
CCc1ccc(CNC(=O)C2CCN(S(=O)(=O)N3CCCCC3)CC2)cc1	2758
COc1ccc(-c2ccc(CN3C(C(C)C)C(=O)N(Cc4cn(CCC5OCCCO5)nn4)CCS3(=O)=O)cc2)cc1OC (stereo unspecified)	3060
O=C(COC(=O)c1cccc(OC(F)F)c1)Nc1cc(S(=O)(=O)N2CCCC2)ccc1Cl	3539
COC(=O)c1cccc(NC(=O)CCN2C(=O)NC(C)(C)C2=O)c1	3681
C[C@H](CO)N1C[C@H](C)[C@@H](CN(C)Cc2ccc3c(c2)OCO3)OCc2cnnn2CCCC1=O	2794
COCCNc1nc(NCc2cc(-c3ccc(OC)cc3)no2)c2sccc2n1	3940
CCOC(=O)C1=CCN(S(=O)(=O)c2ccccc2Cl)C1c1cccc(Cl)c1 (stereo unspecified)	5211
O=C(CCC1CCN(Cc2nccs2)CC1)Nc1ccccc1	3755
CCOC1=C2[C@@H](CN(S(=O)(=O)c3ccc(C)cc3)[C@H]2c2cccc3ccccc23)[C@H]2C(=O)N(CC)C(=O)[C@H]2C1	5570
O=C1c2ccccc2-n2nncc2C2c3cc(Br)ccc3CCN12 (stereo unspecified)	5526
C[C@H]1COc2cccc(N3CCSCC3)c2S(=O)(=O)N1	4805
COCCNC(=O)C1CCCN(C(=O)c2sccc2C)CC1 (stereo unspecified)	3746
O=C(NCc1cccc(Cl)c1)C1Cc2c(-c3ccccc3Oc3ccccc3)ccnc2O1 (stereo unspecified)	2993
COc1ccc(NC(=O)CNc2ccc(OC)c(S(=O)(=O)N3CCOCC3)c2)cc1	3813
Nc1ccn([C@@H]2O[C@H](CNCc3ccc(-c4cc(C(F)(F)F)ccc4Cl)o3)[C@@H](O)[C@H]2O)c(=O)n1	2988
CC1C(=O)N(Cc2cn(CCC3OCCO3)nn2)CCS(=O)(=O)N1Cc1ccc(-c2cccc(CO)c2)cc1 (stereo unspecified)	2952
COC(=O)C(C#N)(CCC(=O)c1ccccc1)CCC(=O)c1ccccc1	6704
Continued:
SMILES	Autofluor counter
CN(C)c1ncnc2c1ncn2[C@H]1CN(Cc2ccco2)C[C@@H](CO)O1	4003
CC(=O)Nc1ccc(NCCc2cccs2)cc1	5442
COc1ccc(C(CC(C)=O)c2c(O)c3ccccc3oc2=O)cc1OC (stereo unspecified)	3837
O=C(c1ccco1)N1CCN(C2CN(CCc3ccccc3)S(=O)(=O)C2)CC1 (stereo unspecified)	5928
O=C(NCC(=O)N1CCCC1)NN=Cc1ccccc1O	5413
CC(C)(C)OC(=O)N1CCN(C(=O)c2ncn3c2c(=O)[nH]c2ccccc23)CC1	3771
COc1cc(F)ccc1-c1cc(C(=O)NCC2CCCCC2)[nH]n1	3002
C[C@H](c1ccccc1)N1C[C@H](COCc2ccccc2)Oc2cc(N3CC[C@@H](O)C3)ccc2S1(=O)=O	4497
COc1ccc(C(N)c2csc(NC(=O)Nc3cccc(C(F)(F)F)c3)n2)cc1 (stereo unspecified)	3487
COc1ccc(S(=O)(=O)N(C)[C@H]2C[C@H]3c4cc(-c5ccccc5)ccc4CCN3C(=O)[C@H]2[C@H](C)O)cc1	3530
COc1ccc(-n2nc3c(c2NC(=O)COc2ccccc2OC)CS(=O)(=O)C3)cc1	3727
Cc1ccc2nc(-c3ccccc3)c(Cc3cccc(Cl)c3)n2c1	6515
Nc1ccn([C@@H]2O[C@H](C(=O)N3CCSC3)[C@@H](O)[C@H]2O)c(=O)n1	5372
CC1(Oc2ccc(Cl)cc2)CCN(Cc2cccn2-c2nccs2)C1 (stereo unspecified)	3800
COc1cccc(-c2cnc(C(O)c3cc(C)ccc3C)[nH]2)c1 (stereo unspecified)	2765
COCOc1ccc(-c2ncc(OCCN3CCCC3=O)nc2NC(=O)c2cc3ccccc3s2)cc1	3708
Cn1c(Nc2ccc(Cl)cc2F)nc2cc(-c3ccccc3)sc2c1=O	3037
O=C(N/C(=C/c1ccc(F)cc1)C(=O)N1CCOCC1)c1ccco1	3550
COc1ccc([C@H]2C[C@@H](n3cc(COC(=O)c4ccccc4)nn3)[C@H](O)CN2C(=O)C2CCCCC2)cc1	3052
Cc1nc2ccccc2c(=O)n1-c1nccs1	5741
O=C(c1cccs1)N1CCC(C(=O)O)(c2ccccc2)CC1	4190
Cc1noc(C)c1Cn1c(C)c(C(=O)NCc2ccc3c(c2)OCCO3)sc1=O	5005
Cc1nc2c(OCc3ccc(Cl)cc3)cccn2c1N(C)Cc1cccs1	3833
Nc1nc2c(ncn2[C@@H]2O[C@H](CNCc3cnc(N4CCOCC4)nc3)[C@@H](O)[C@H]2O)c(=O)[nH]1	5918
Cc1cn([C@H]2C[C@H](O)[C@@H](CNCc3cccn3-c3ccncc3)O2)c(=O)[nH]c1=O	3537

Sorted by number of heavy atoms (rising): 14 of the compounds above.
SMILES	Autofluor counter
Cc1nc2ccccc2c(=O)n1-c1nccs1	5741
CC(=O)Nc1ccc(NCCc2cccs2)cc1	5442
O=C(NCC(=O)N1CCCC1)NN=Cc1ccccc1O	5413
O=C(c1cccs1)N1CCC(C(=O)O)(c2ccccc2)CC1	4190
COc1cc(F)ccc1-c1cc(C(=O)NCC2CCCCC2)[nH]n1	3002
CC1(Oc2ccc(Cl)cc2)CCN(Cc2cccn2-c2nccs2)C1 (stereo unspecified)	3800
Cn1c(Nc2ccc(Cl)cc2F)nc2cc(-c3ccccc3)sc2c1=O	3037
Cc1nc2c(OCc3ccc(Cl)cc3)cccn2c1N(C)Cc1cccs1	3833
O=C(c1ccco1)N1CCN(C2CN(CCc3ccccc3)S(=O)(=O)C2)CC1 (stereo unspecified)	5928
Cc1noc(C)c1Cn1c(C)c(C(=O)NCc2ccc3c(c2)OCCO3)sc1=O	5005
COc1ccc(-n2nc3c(c2NC(=O)COc2ccccc2OC)CS(=O)(=O)C3)cc1	3727
Nc1nc2c(ncn2[C@@H]2O[C@H](CNCc3cnc(N4CCOCC4)nc3)[C@@H](O)[C@H]2O)c(=O)[nH]1	5918
C[C@H](c1ccccc1)N1C[C@H](COCc2ccccc2)Oc2cc(N3CC[C@@H](O)C3)ccc2S1(=O)=O	4497
COCOc1ccc(-c2ncc(OCCN3CCCC3=O)nc2NC(=O)c2cc3ccccc3s2)cc1	3708

More structures follow:
SMILES	Autofluor counter
Cn1c(NCc2ccccc2F)nc2cc(-c3cccc(C(F)(F)F)c3)sc2c1=O	3917
Cc1ccc2nc3n(c(=O)c2c1)-c1ncccc1C(=O)NC3Cc1ccc(O)cc1 (stereo unspecified)	3354
C#CCN(C[C@H]1[C@H](OC(=O)NCc2ccc(OC)c(OC)c2)[C@H](OC(=O)NCc2ccc(OC)c(OC)c2)C[C@@H](C(=O)OC)[C@H]1C(=O)OC)S(=O)(=O)c1ccc(C)cc1	3016
CC(=O)Nc1cccc(-c2cc(NC(C)=O)c3ncc(-c4ccc(F)cc4)n3c2)c1	3044
CC1(C(=O)NCc2cccnc2)CCN1C(=O)c1cccc(F)c1 (stereo unspecified)	3956
COC(=O)c1c(C)[nH]c(C(=O)OC(C)C(=O)NC2CCCCC2C)c1C (stereo unspecified)	2994
O=[N+]([O-])c1ccc(-c2csc(COc3ccccc3)n2)cc1	2978
CCCS(=O)(=O)NC(=O)C1(C)CCCN(C(=O)Cc2ccc3ccccc3c2)C1 (stereo unspecified)	2986
CC(=O)NCCCNC(=S)NCCCN(Cc1ccc(Cl)cc1)c1ccc(Br)cn1	3655
O=C(COC(=O)c1cc(S(=O)(=O)N2CCCCC2)ccc1N1CCOCC1)c1ccccc1Cl	3458
CCOC(=O)[C@]12CCC=C1N(Cc1ccccc1)C(=O)[C@H](CC(=O)N1CCCCC1)C2	4408
OC(c1ccc(F)c(F)c1)c1nc(-c2cccc3cccnc23)cs1 (stereo unspecified)	3609
CCCCn1nnnc1C(c1ccccc1)N1CCN(c2ncc(C(F)(F)F)cc2Cl)CC1 (stereo unspecified)	5600
CCCNC(=O)C1(C)CCCN(C(=O)c2cccc(OC(F)(F)F)c2)C1 (stereo unspecified)	3945
Cc1cc(F)ccc1-c1cc(C(=O)NC2CCCCC2)[nH]n1	2938
Cc1ccc(Cc2c(-c3ccc(C)cc3)nc3ccc(Br)cn23)cc1	3867
Cc1cccc(C)c1NC(=O)Nc1nc(C(N)c2ccccc2Cl)cs1 (stereo unspecified)	3887
CCc1nc2ccc(C(=O)NCc3ccccc3OC)cn2c1N(CCC(C)C)CCN(C)C	2936
COc1cc2c(cc1NC(=O)c1ccccc1-c1ccccc1C(=O)O)-c1ccccc1C2	2937
CC(=O)c1ccc2cc3c(cc2c1)OCO3	3943
CCNC(=S)Nc1ccc2c(c1)c(=O)n(C)n2-c1ccc(C(C)(C)C)cc1	3394
CC(C)NC(=O)N(C)C[C@@H]1Oc2cc(C#Cc3ccccn3)ccc2S(=O)(=O)N([C@@H](C)CO)C[C@H]1C	3545
O=C(NCCN1CCC(n2c(=O)[nH]c3ccccc32)CC1)c1ccc(Cl)c(Cl)c1	4324
COc1cccc(CNC(=O)[C@@H]2CCCN2C(=O)[C@H]2CCCCN2C(=O)c2ccccc2C)c1	6218
CN(C)c1ncnc2c1ncn2[C@H]1CN(Cc2cccnc2)C[C@@H](CO)O1	2880
Further records
SMILES	Autofluor counter
CCCCNC(=O)C1(C)CCN1C(=O)c1cccc(OC(F)(F)F)c1 (stereo unspecified)	3945
COCCN1C(=O)COc2ccccc2C1C(=O)Nc1ccc2c(c1)OCCO2 (stereo unspecified)	5328
COc1ccccc1-c1cnc2c(Nc3cccc(OC(F)(F)C(F)F)c3)nccn12	3506
CCNC(=O)C1(C)CCCN(Cc2csc(-c3ccccc3)n2)C1 (stereo unspecified)	6137
Cc1ccccc1S(=O)(=O)N(C)C[C@@H]1OCc2cn(nn2)CCCC(=O)N([C@H](C)CO)C[C@H]1C	3751
CCN(CC)C(=O)Cn1cc(SCC(=O)NC2CCCCC2)c2ccccc21	3574
C=Cn1cc(CNC[C@H]2O[C@@H](n3cc(C)c(=O)[nH]c3=O)C[C@@H]2O)c(C)n1	3867
CCCCNc1c(-c2cc3ccccc3o2)nc2nc(C)cc(C)n12	5592
COc1cc(CNC(=O)Nc2nnc([C@H]3C[C@H](O)[C@@H](CO)O3)s2)cc(OC)c1OC	2871
O=C1NC[C@H](CCCCN2CCN(CCC3CCCCC3)C(=O)C2=O)N(CCc2ccc(O)cc2)C1=O	5085
